# Calb FLC: affects C. albicans growth with fluconazole | 0.57% of 300,000 active | growth inhibition, % (no concentration beside the values) | AID 1979 | C. albicans CaCi-2 (fluconazole-resistant clinical isolate) + fluconazole, Alamar Blue growth, 48 h;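 active means most replicates above 75%; inconclusive means exactly half above 75%; inactive means most below 75%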;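 further: all wells also contain fluconazole at 8 µg/ml as a sub-toxic cotreatment; 0% = median of DMSO wells and 100% = median of geldanamycin control wells; wells of about 8 µL received 7.5 nL stock; the first replicate is given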
# B2AR ag: activates human beta-2 adrenergic receptor causing internalization; response, % (concentration not given with the values); Am2.2-beta2AR cells, FAP receptor internalization, flow cytometry; reference of the scale not given here; AID 504454; 0.43% of 340,000 active;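 active means response above a set limit, near 3 SD of response in nonfluorescent compounds, cut at about 42% in these data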;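 further: stock transfer was 100 nL into about 11 µL; a reference agonist was the positive control; negative values mostly stem from fluorescent compounds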
# Target sequence (P07550 whole entry, looked up): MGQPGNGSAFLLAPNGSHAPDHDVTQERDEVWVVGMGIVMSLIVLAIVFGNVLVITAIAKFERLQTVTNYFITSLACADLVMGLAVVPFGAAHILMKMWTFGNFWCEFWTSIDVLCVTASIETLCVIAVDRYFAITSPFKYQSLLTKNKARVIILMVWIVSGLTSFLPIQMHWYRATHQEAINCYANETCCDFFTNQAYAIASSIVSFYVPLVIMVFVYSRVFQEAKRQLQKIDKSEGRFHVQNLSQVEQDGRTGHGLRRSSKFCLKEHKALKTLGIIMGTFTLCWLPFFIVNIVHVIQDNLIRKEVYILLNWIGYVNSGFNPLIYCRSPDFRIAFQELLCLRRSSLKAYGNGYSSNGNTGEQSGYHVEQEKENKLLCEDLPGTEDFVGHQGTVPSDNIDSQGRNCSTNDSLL
# ALR inh: human ALR oxidase inhibition via reduced H2O2; purified ALR, DTT oxidation, H2O2 HRP-luminol luminescence; inhibition, % (test concentration not listed); 3.8% of 290,000 active;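 active means mean and each replicate at 75% or more; inconclusive means only one of the two met; inactive means neither met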;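 further: stock transfer was 7.5 nL into about 7.5 µL; 0% = neutral wells and 100% = wells with inactivated enzyme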
# Target sequence (P55789 whole entry, looked up): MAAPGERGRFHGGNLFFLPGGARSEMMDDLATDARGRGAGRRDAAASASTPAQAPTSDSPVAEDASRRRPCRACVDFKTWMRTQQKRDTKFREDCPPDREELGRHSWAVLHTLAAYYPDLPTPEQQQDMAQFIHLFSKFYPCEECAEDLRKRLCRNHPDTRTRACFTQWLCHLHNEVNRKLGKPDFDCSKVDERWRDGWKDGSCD
# Vif A3G: inhibitors of Vif binding to APOBEC3G peptide, primary screen, biochemical, TR-FRET, GST-Vif 1-94, biotin-A3G peptide, dose response retest (AID 1117319) | 0.57% of 260,000 active | inhibition, %; hits with a dose series show IC50 in µM | TR-FRET GST-Vif / biotin-A3G peptide binding; higher % means a stronger effect; test concentration not given here; strong numbers were not always called active;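 active means above the screen mean plus three standard deviations and confirmed in dose response; inconclusive means results disagree or hit not tested in dose response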;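 further: Vif residues 1-94 fused to GST binding biotinylated APOBEC3G peptide 110-148; 0% = full assay without inhibitor and 100% = GST in place of GST-Vif; retest series ran down from 100 µM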
# HNF4A DNA FP: change in binding of human HNF4 alpha to DNA | 0.3% of 360,000 active | P41235 | HNF4a-FITC DNA binding, fluorescence polarization, 1 h | activity change, % at 10 µM; in the data active means activity change above about 30%, passing the limit was not always enough;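 further: controls were the assay level and a saturating level of protein; the project sought stronger binding though the title names inhibitors; some compounds called inactive have numbers as strong as hits; positive values seem to mean higher polarization but the record does not say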
# Target sequence (P41235 whole entry, looked up): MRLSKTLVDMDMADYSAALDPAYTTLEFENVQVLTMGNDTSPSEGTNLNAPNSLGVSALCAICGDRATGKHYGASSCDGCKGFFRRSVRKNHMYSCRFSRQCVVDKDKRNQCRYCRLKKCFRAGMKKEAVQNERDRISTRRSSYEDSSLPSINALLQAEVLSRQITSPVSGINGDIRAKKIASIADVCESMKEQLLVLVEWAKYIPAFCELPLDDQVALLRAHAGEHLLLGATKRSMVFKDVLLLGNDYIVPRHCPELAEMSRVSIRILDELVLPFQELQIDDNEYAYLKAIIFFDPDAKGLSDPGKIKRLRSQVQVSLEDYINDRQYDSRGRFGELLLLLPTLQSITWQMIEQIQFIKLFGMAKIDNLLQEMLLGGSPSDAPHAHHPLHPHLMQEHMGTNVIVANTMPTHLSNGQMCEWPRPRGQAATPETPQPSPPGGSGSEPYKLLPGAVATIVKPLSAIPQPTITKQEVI
# LANA-H2A inh: blocks KSHV LANA binding to histone H2A/H2B. inhibition, % (test concentration not listed). Q9QR71. cell-free LANA-H2A/H2B peptide, fluorescence polarization. 0.6% of 320,000 active; in the data active means inhibition mostly above about 10%, no sharp cut-off; inactive means mostly below about 6.7%;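 further: stock transfer was 7.5 nL into about 10 µL; 0% = median of vehicle wells and 100% = median of positive control wells; one replicate is shown; the record names a cut of 25% in any replicate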
# RanGTP-Imp inh: inhibitors of RanGTP-importin-beta interaction, primary screen, biochemical, FRET, CFP-Ran, YFP-importin-beta, homogeneous; cell-free CFP-Ran/YFP-importin-beta FRET ratio; inhibition, % (test concentration not listed); 1.1% of 300,000 active;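 active means most replicates above 15%; inconclusive means exactly half above 15%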;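 further: 0% = DMSO wells and 100% = Ran loaded with GDP instead of GTP; wells of about 40 µL received 100 nL stock; the first replicate is given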
# Starred values were filed as active, the others as inactive; i = inactive; u = inconclusive; x = no result given. Compounds were not picked by outcome (roughly 6.3% active in at least one column).
SMILES,Calb FLC,B2AR ag,ALR inh,Vif A3G,HNF4A DNA FP,LANA-H2A inh,RanGTP-Imp inh
CCOC(=O)C1=C(C)NC2=C(C(=O)CC(C)(C)C2)C1c1ccc(O)c(OCC)c1 (centres undefined),13.6,-3.2,0.0,14.8%,0.9,-7.8,3.5
Cc1ccc(-c2nc3cc(Br)cnc3nc2-c2ccc(C)cc2)cc1,-6.2,7.6,38.3,6.7%,-2.0,0.9,0.9
N#Cc1cnn2c(C(F)(F)F)cc(-c3ccccc3)nc12,-11.1,-8.5,-3.7,x,5.6,-2.3,4.6
O=c1cc(/N=C/c2coc3c(ccc4ccccc43)c2=O)[nH]c(=S)[nH]1,u,2.2,x,2.1%,-5.3,-2.4,-3.3
CCOC(=O)COc1ccccc1/C=C\[N+](=O)[O-],4.0,51.4*,22.9,-4.1%,-3.2,i,2.1
O=C(NCCC1=CCCCC1)C(=O)NCC1OCCCN1S(=O)(=O)c1cc(F)ccc1F (centres undefined),1.7,-1.9,-6.8,3.4%,-1.0,1.6,4.4
COc1cc(/C=N/NC(=O)c2ccoc2C)cc(OC)c1O,-11.3,4.1,65.4,x,x,-0.9,3.7
O=C(NCCc1csc(-c2ccccc2)n1)c1ccco1,10.7,-13.0,-3.3,-15.7%,-0.1,-5.0,0.1
COc1cccc(CNC(=O)Cc2csc(Nc3nc(=S)[nH]c4ccccc34)n2)c1,13.3,-5.6,-48.5,-8.2%,3.8,-2.3,-0.4
CCN(CC1COc2ccccc2O1)C(=O)CN1C(=O)NC(C)(c2ccccc2)C1=O (centres undefined),x,-13.7,0.6,2.5%,2.7,-3.1,x
Cc1ccc(S(=O)(=O)N2[C@@H](c3ccc(F)cc3)C(C(=O)O)=CC[C@H]2c2ccc3c(c2)OCO3)cc1,x,1.0,14.8,x,-2.5,4.1,x
CC1CCCC(C)N1C(=O)c1ccc(CS(=O)(=O)c2ccccc2)cc1 (centres undefined),8.9,2.7,-2.8,x,2.8,1.1,-2.8

# Entries of single compounds from above. Values in the order: Calb FLC	B2AR ag	ALR inh	Vif A3G	HNF4A DNA FP	LANA-H2A inh	RanGTP-Imp inh
# O=C(NCCC1=CCCCC1)C(=O)NCC1OCCCN1S(=O)(=O)c1cc(F)ccc1F (centres undefined) is listed with 1.7	-1.9	-6.8	3.4%	-1.0	1.6	4.4
# CCOC(=O)COc1ccccc1/C=C\[N+](=O)[O-] is listed with 4.0	51.4*	22.9	-4.1%	-3.2	i	2.1
# COc1cccc(CNC(=O)Cc2csc(Nc3nc(=S)[nH]c4ccccc34)n2)c1 is listed with 13.3	-5.6	-48.5	-8.2%	3.8	-2.3	-0.4
# CCN(CC1COc2ccccc2O1)C(=O)CN1C(=O)NC(C)(c2ccccc2)C1=O (centres undefined) is listed with x	-13.7	0.6	2.5%	2.7	-3.1	x

# Additional structures follow:
SMILES,Calb FLC,B2AR ag,ALR inh,Vif A3G,HNF4A DNA FP,LANA-H2A inh,RanGTP-Imp inh
O=C(Nc1ccc([N+](=O)[O-])cc1)Nc1ccc(N2CCOCC2)c2nonc12,-4.7,25.1,-12.9,17.6%,-41.8,12.4,-4.1
Cc1ccc(NC(=O)c2cc(-c3ccco3)on2)cc1C,-10.0,9.5,8.4,3.7%,11.5,-4.1,2.5
COc1ccc(Cn2c(C)c(C)c(C#N)c2NC(=O)Nc2ccccc2)cc1,-6.7,-1.8,-2.2,u,-1.7,5.0,1.5
O=C(CCC(=O)CCN1CCCCC1)CCN1CCCCC1,0.0,11.6,x,u,22.3,-0.1,-0.8
CCCN(CC(=O)Nc1ccccc1OC)Cc1c(O)ccc2ccccc12,-4.7,-1.7,-0.5,11.3%,2.3,2.3,0.2
COc1ccc(N2C(=O)c3ccccc3NC2c2ccc(NC(C)=O)cc2)c(OC)c1 (centres undefined),0.2,-0.9,-1.1,x,-1.6,7.5,6.2
CC(C(=O)NCC1CCCO1)N(C(=O)c1snc(C(N)=O)c1N)c1cccc(F)c1 (centres undefined),0.3,-7.4,-14.5,18.4%,0.1,-2.6,-0.3
COc1ccccc1CNC(=O)COC(=O)c1n[nH]c2ccccc12,-2.2,-5.3,-2.9,-1.1%,3.5,1.8,-0.5
O=C(NCCC1CCCCN1S(=O)(=O)c1ccc(Cl)cc1)C(=O)NCc1ccco1 (centres undefined),-11.8,3.2,-1.0,5.0%,1.8,-7.0,-7.2
CC(C)(C)NS(=O)(=O)c1ccc(CCC(=O)Nc2cc(Cl)ccc2Oc2ccccc2)cc1,23.0,-1.5,-2.8,22.2%,-0.2,4.6,0.1
Cn1c(=S)c2[nH]c(SCCN3CCCC3)nc2n(C)c1=O,-2.5,-2.8,x,u,-1.6,3.3,5.7
Clc1ccc(CNCc2cccs2)cc1Cl,-4.4,3.1,-3.9,-2.4%,2.2,-3.3,-0.9
O=C(Cc1ccc(S(=O)(=O)N2CCOCC2)s1)NCCc1ccc(F)cc1,-1.5,6.0,-11.7,-6.5%,8.1,4.3,1.6
CCC(C)(C(=O)NC1CCCCC1)N(Cc1ccco1)C(=O)CNC(=O)c1ccccc1 (centres undefined),-4.3,-0.5,4.2,-0.3%,0.8,2.9,-0.7
CCC(=O)N(CCO)Cc1cc2ccc(C)c(C)c2[nH]c1=O,5.3,-7.2,2.8,3.2%,0.8,-0.9,-0.6
COc1ccc(CNc2nc3nc4c(c(=O)n3[nH]2)CCC4)cc1,-1.8,1.7,0.3,-4.4%,0.3,0.8,8.5
CC1CCN(C(=O)CCNC(=O)c2ccccc2Cl)CC1,13.1,-0.3,-1.4,x,1.3,-1.4,0.0
COC(=O)c1n[nH]n(-c2ccc(F)c(Cl)c2)c1=O,-1.0,-1.4,-5.6,28.2%,1.3,-1.0,4.8
O=[N+]([O-])c1ccc([N+](=O)[O-])c(Nc2ccc(N3CCOCC3)cc2)c1,18.3,0.2,97.8*,-2.7%,-2.0,-3.4,0.4
Cc1cc(C)cc(NC(=O)C(Sc2nnc(C)c(=O)[nH]2)c2ccccc2)c1 (centres undefined),-5.6,-3.8,-0.8,x,-0.4,2.4,u
COc1ccc(-n2cc(-c3ccccc3)c3c(NCCCN4CCOCC4)ncnc32)cc1,13.6,1.6,x,x,1.4,-4.8,4.8
Cc1cc(C)c(C#N)c(SCC(=O)CC(=O)OC(C)C)n1,1.2,-0.1,16.9,32.0%,6.3,-2.1,u
CCOc1ccc(/C=C/C(=O)NCc2ccccc2)cc1,-29.4,0.6,-4.4,x,-0.7,-3.3,-2.7
CCCCCN(CCCCC)C(=O)C(CCC(=O)O)NC(=O)c1ccc(Cl)c(Cl)c1 (centres undefined),26.4,-7.8,9.6,x,0.8,2.9,-3.2
COc1ccc(CNc2cc(C)nc3ccc(OC)cc23)cc1,-1.3,2.6,-4.2,x,6.0,0.9,-5.7
CCc1ccc(N(CC)c2ncnc3nc[nH]c23)cc1,8.9,-4.3,-12.1,15.8%,-0.9,-0.2,2.3
Cc1cccn2c(CN(C)CCC3CCCCO3)c(C(=O)N3CCCCC3)nc12 (centres undefined),-24.7,2.0,x,x,6.0,-0.9,-5.6
CN(C)c1ccc(S(=O)(=O)NCC(=O)NCC2CCCCC2)cc1[N+](=O)[O-],34.1,-24.5,x,x,-3.8,-13.2,2.2
O=S(=O)(NCCSc1ccc(Cl)cc1)c1ccc2c(c1)OCCO2,-80.3,1.8,-0.1,3.0%,1.2,-1.5,3.3
O=c1[nH]c(-c2ccc(Cl)cc2)nc2c1cnn2-c1ccccc1,-7.1,x,x,-0.1%,x,x,3.0
CC(OC(=O)c1ccc(-n2cnnn2)cc1)C(=O)Nc1ccccc1[N+](=O)[O-] (centres undefined),x,-0.8,-4.1,4.7%,0.2,x,x
CC1CCN(C(=O)Cn2cc([N+](=O)[O-])ccc2=O)c2ccccc2S1 (centres undefined),x,3.5,1.6,2.9%,2.0,-0.3,x
CCCCN(C)CCNC(=O)c1cn(C)c(=O)c2c1c1ccccc1n2C,-0.2,8.4,-6.1,2.9%,4.0,1.0,u
O=S(=O)(c1cccc2nsnc12)N1CCOCC1,10.5,-0.4,-2.4,-5.6%,1.7,1.3,u
COC(=O)CNC(=O)CSc1ccccn1,4.1,-2.6,-7.3,-5.8%,-2.5,-0.2,8.1
CCOC(=O)/C(C#N)=C/c1c(N2CCCCCC2)nc2ccccn2c1=O,-15.8,-0.4,-0.6,0.8%,3.8,0.3,-2.3
COC(=O)c1ccc(COc2ccccc2/C=N/NC(=O)c2cccnc2)cc1,5.3,3.1,-8.9,-3.0%,0.5,0.6,-0.5
COc1ccc(Cl)cc1C(=O)OCC(=O)N1CCCC(C)C1 (centres undefined),x,-6.5,-1.8,-12.3%,0.5,1.8,x
Brc1ccc(-c2cnnc(N3CCCC3)n2)cc1,0.3,-0.5,1.9,-2.0%,-29.0,-1.2,-2.2
CSc1ccc(CCNC(=O)C2CCN(c3nnc(-n4cccc4)s3)CC2)cc1,-6.3,77.9*,x,-2.5%,-4.0,x,0.3
O=C(NCC(=O)N(Cc1ccccc1)C(C(=O)NCC1CCCO1)c1ccccc1)c1ccco1 (centres undefined),2.5,-5.0,-10.9,x,-0.6,-4.8,-4.3
COc1ccc(CC(=O)Nc2cc(S(=O)(=O)N3CCOCC3)ccc2N2CCOCC2)cc1,-23.2,-6.3,-7.3,-6.8%,-3.6,6.4,-0.2
Cc1nonc1OCCNc1ccc([N+](=O)[O-])cc1[N+](=O)[O-],x,-6.2,-6.8,7.1%,3.3,-2.2,x
Cc1c(C(=O)NCC2CCCO2)oc2ccccc12 (centres undefined),x,1.3,-1.5,-0.1%,8.3,5.4,x
O=C(CSc1nnc2ccccn12)NC(=O)c1ccccc1Cl,x,-0.5,2.5,x,-4.8,1.4,x
COC(=O)c1sc(C(F)(F)F)c(-c2ccccc2)c1S(=O)(=O)N1CCCC1,11.6,19.3,-8.8,-6.7%,-2.3,-2.0,2.4
Cc1cc(C)n(C(=O)CNC(=O)c2cccc(Cl)c2)n1,1.9,11.2,x,x,1.1,x,-0.2
Cn1nc(C(=O)Nc2cccc(S(=O)(=O)N3CCCC3)c2)c2ccccc2c1=O,x,1.3,2.2,-0.7%,-2.1,-1.4,x
Cc1cccc(CN2CCC(CNC(=O)Cn3ncc4c([nH]c5ccccc54)c3=O)CC2)c1,-3.4,0.8,-1.1,-10.0%,3.3,-0.2,1.7
CC(Oc1ccccc1Cl)C(=O)Nc1ccc(S(=O)(=O)N2CCCC2)cc1 (centres undefined),-0.5,8.0,x,3.1%,-1.0,x,-3.9
CCOC(=O)c1c(NC(=O)COC(=O)c2ccc(NC(=O)CC#N)cc2)sc(C(=O)NC)c1C,x,4.5,0.3,x,-15.3,-1.4,x
Cc1oc(-c2ccccc2F)nc1CS(=O)(=O)CC(=O)NC(C)CCc1ccccc1 (centres undefined),4.6,-4.8,-7.8,x,4.0,-1.3,2.5
CCOC(=O)CCSCC(=O)Nc1nnc(C)s1,-2.2,11.7,22.1,1.6%,-1.1,0.8,-2.8
O=C(CC1CCCCC1)Nc1c2c(nn1-c1ccc(F)cc1)CS(=O)(=O)C2,-0.5,-0.8,0.9,24.6%,0.6,-5.5,-0.1
CCCCN(C(=O)c1ccc(-c2ccc([N+](=O)[O-])cc2)o1)c1c(N)n(CC(C)C)c(=O)[nH]c1=O,x,4.6,1.1,-9.2%,-0.8,-1.2,x
c1ccc2sc(-c3ccc4c(c3)OCO4)nc2c1,x,-2.4,-5.0,1.6%,1.7,0.5,x
CCN(c1ccccc1)S(=O)(=O)c1ccc(Cl)c(C(=O)N(CC2CCCO2)C2CCS(=O)(=O)C2)c1 (centres undefined),3.9,3.8,-4.3,-19.3%,1.4,2.9,6.2
CCOC(=O)Cn1cnc2c(nnn2-c2ccc(F)cc2)c1=O,4.1,-9.4,-23.6,x,2.8,-0.7,5.9
O=c1oc2ccccc2c(Cl)c1CN1CCCCC1,-8.4,1.1,-2.5,29.8%,0.3,-2.0,0.5
